Source: PubChem BioAssay (several laboratories)
Ecoli rRNA inh: selective bacterial rRNA inhibition in E. coli; E. coli WT GFP vs humanized-ribosome RFP mutants, fluorescence, 24 h; stronger effect = lower value; DMSO median 0, no signal -100; GFP signal change (wild-type ribosome), % (no concentration beside the values); hit rate 1.6% among 350,000; AID 720706;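 active means significant combined selectivity score with lowered wild-type GFP, culture density cut under 30%, mutant RFP and density less affected; inactive means any of these conditions unmet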; further: one replicate is shown; some compounds called inactive have numbers as strong as hits
T cruzi inh: T. cruzi replication inhibition; T. cruzi beta-gal in NIH3T3, luminescence, 90 h; inhibition, % (concentration not given with the values); hit rate 1.4% among 300,000; AID 1885;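 active means mean inhibition across valid replicates above about 55%, limit read from the data; inconclusive means mean below that limit but half or more replicates reach it; inactive means mean below it, under half of replicates reach it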;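 further: signal also drops with host cell toxicity which is not excluded here; 0% = plate median of DMSO wells and 100% = zero luminescence signal; higher percent means less beta-gal luminescence so fewer parasites; stock transfer was 50 nL into about 50 µL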
UCH37 DUB inh: human UCH37 deubiquitinating enzyme inhibition. Q9Y5K5. purified proteasome/UCH37, Ub-AMC cleavage fluorescence. inhibition, % (test concentration not listed). hit rate 0.33% among 330,000;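 active means mean of two replicates above 20%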;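 further: 0% = compound-free wells with enzyme and 100% = wells lacking proteasome; stock transfer was 100 nL into about 20 µL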
Target sequence (Q9Y5K5 whole entry, looked up): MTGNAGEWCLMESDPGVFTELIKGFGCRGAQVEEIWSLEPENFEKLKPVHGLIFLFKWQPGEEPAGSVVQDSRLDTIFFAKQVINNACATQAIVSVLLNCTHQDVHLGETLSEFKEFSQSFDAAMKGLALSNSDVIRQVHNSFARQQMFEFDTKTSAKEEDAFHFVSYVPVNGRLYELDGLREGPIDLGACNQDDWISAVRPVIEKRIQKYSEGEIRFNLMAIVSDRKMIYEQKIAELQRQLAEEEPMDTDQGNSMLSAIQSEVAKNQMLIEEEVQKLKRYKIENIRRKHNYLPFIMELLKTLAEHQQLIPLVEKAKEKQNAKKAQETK
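Test system – human UCH37 enzyme supplied as purified proteasome complex · Incubation – 30 min preincubation with enzyme, 25 min cleavage at room temperature · Detection – AMC fluorescence from Ub-AMC cleavage, excitation 355 nm, emission 460 nm · Benchmarks – no-proteasome wells (full inhibition) and compound-free wells (no inhibition)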
Beta apoptosis: blocks beta cell apoptosis; INS-1E cytokine-induced death, ATP luminescence, 48 h; percent of positive-control rescue, neutral wells zero; protection from apoptosis, % (no concentration beside the values); hit rate 0.8% among 300,000; AID 435005;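 active means all replicates at 75% or more, or half of them and the mean; inconclusive means half reach 75% but not the mean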;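 further: 0% = cytokine-treated negative control wells and 100% = positive control rescue; higher means more ATP so stronger rescue from cytokine killing; wells of about 40 µL received 100 nL stock; the first replicate is given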
Bfl-1 A1 inh: inhibitors of the anti-apoptotic protein A1, read as caspase activation | caspase activation, % (concentration not given with the values) | MEF A1-2A-BIM cells, Caspase-Glo 3/7 luminescence, 3 h; percent of clofoctol response, vehicle zero | hit rate 0.066% among 330,000;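 active means over half of replicate activation scores above 10%, or exactly half above 10 with the replicate mean above 10; inconclusive means replicate mean below 10 yet half the replicates above 10; inactive means over half of replicates below 10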;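 further: wells of about 30 µL received 50 nL stock; many hits fall short of the cut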
FGF22 binding: shifts melting point of recombinant human FGF22. Q9HCT0. recombinant FGF22 thermal shift, SYPRO orange fluorescence; percent of sucrose octasulfate shift, DMSO zero. calls only at 9.99 µM. hit rate 1.5% among 340,000. AID 651658;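 active means melting point raised past a set limit in the mean and every replicate; inconclusive means no clear call; three in four hits are not shown here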
Target sequence (Q9HCT0 whole entry, looked up): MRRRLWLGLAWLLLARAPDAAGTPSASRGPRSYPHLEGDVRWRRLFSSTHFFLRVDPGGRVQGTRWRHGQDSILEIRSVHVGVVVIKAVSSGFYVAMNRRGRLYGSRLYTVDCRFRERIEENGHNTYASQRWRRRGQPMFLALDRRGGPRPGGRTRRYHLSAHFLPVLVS
Ecoli growth: E. coli growth inhibition | hit rate 0.21% among 330,000 | OD600 absorbance (test concentration not listed) | Escherichia coli growth, OD600, 23 h; stronger effect = lower value;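 active means OD600 absorbance below the run mean of sample wells minus 3.6 SD, in any replicate, cut at about 0.56 in these data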;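 further: stock transfer was 300 nL into about 60 µL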
AF4-AF9 inh: MLL-AF4/AF9 protein interaction inhibition | AID 651704 | AlphaScreen, biotin-AF4 peptide binding to FLAG-AF9 | inhibition, % at 10 µM | hit rate 0.47% among 350,000 | P42568;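 active means every replicate reaching a set inhibition limit, whatever the replicate mean, cut at about 25% in these data; inconclusive means mean inhibition reaches that limit but some replicates miss it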;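 further: 0% = plate neutral control median and 100% = total signal loss; the record names both 10 and 1 µM as test concentration; the first replicate is given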
Target sequence (P42568 whole entry, looked up): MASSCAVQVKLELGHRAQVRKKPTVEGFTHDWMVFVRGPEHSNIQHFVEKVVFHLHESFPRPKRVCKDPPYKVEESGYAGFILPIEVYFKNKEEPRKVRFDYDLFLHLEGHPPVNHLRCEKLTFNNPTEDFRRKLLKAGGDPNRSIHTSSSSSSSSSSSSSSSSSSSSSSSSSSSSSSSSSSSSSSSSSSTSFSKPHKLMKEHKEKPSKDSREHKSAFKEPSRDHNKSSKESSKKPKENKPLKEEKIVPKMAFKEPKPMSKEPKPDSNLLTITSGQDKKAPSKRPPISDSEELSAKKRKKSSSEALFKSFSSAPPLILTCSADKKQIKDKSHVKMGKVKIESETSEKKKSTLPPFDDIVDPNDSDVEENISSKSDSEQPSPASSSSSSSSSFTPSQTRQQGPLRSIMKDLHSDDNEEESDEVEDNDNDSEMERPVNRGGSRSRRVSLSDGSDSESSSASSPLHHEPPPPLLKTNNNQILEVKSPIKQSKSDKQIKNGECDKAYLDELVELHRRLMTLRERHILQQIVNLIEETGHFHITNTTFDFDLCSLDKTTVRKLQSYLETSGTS
Ecoli rRNA inh OD600: also measured in Ecoli rRNA inh; calls as there; OD600 change, %; measured here: OD600 growth;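 optical density of the mix in the first replicate; 0 = DMSO median and -100 = no signal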
Ecoli rRNA inh RFP: second read-out of Ecoli rRNA inh, no call of its own (marks repeat the call); RFP signal change, %; measured here: RFP humanized mutant strains;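 first replicate; 0 = DMSO median and -100 = no signal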
* marks the source's active call; other numbers are inactive results; i = inactive; u = inconclusive; x = not tested or not shown. Not all compounds are listed. The share of hits here may be higher or lower than overall.

SMILES | Ecoli rRNA inh | Ecoli rRNA inh OD600 | Ecoli rRNA inh RFP | T cruzi inh | UCH37 DUB inh | Beta apoptosis | Bfl-1 A1 inh | FGF22 binding | Ecoli growth | AF4-AF9 inh
Cc1c(OCC(=O)N2CCN(c3ccccc3)CC2)ccc2c3c(c(=O)oc12)CCCC3 | 9 | 10 | 0.3 | 3 | 1.4 | x | -0.4 | i | 0.67 | -1.1
COc1cc(OC)cc(C(=O)NNC(=O)C(CCC(N)=O)NS(=O)(=O)c2ccc(Cl)cc2)c1 (centres undefined) | 10 | 18 | -1.6 | x | -1.3 | x | x | i | 0.68 | -0.3
CC1CC1C(=O)OCC(=O)Nc1cc(S(=O)(=O)N2CCCCC2)ccc1Cl (centres undefined) | 3 | 0 | 1.3 | x | 7.9 | -2 | -0.5 | i | 0.68 | 1.7
CC(CCc1ccco1)NC(=O)Cn1nc(Cc2ccncc2)c2ccccc2c1=O (centres undefined) | -1 | -1 | 1.4 | 8 | 2.3 | -2 | -0.1 | i | 0.77 | -8.8
COc1ccccc1C(=O)N=C1SC2CS(=O)(=O)CC2N1c1ccccc1 (centres undefined) | 5 | 8 | 0.4 | -1 | 0.3 | 1 | 0.2 | i | 0.68 | 0.3
CCOc1ccc(N/C=C/C(=O)c2ccccc2)cc1 | 9 | 8 | 2.3 | 8 | -3.3 | -2 | -9.7 | i | 0.74 | 1.9
COc1cc(CN(C)C(=O)C(=O)c2c[nH]c3ccccc23)ccc1O | -4 | -10 | 1.5 | x | 3.0 | x | x | i | 0.69 | -2.2
COc1ccc(NC(=O)CSc2nc(C)cs2)cc1 | -6 | -3 | 3.1 | -2 | 4.7 | 2 | -0.1 | i | 0.64 | -1.3
CC(C)(C)NC(=O)NC(=O)COC(=O)c1ccc2c(c1)S(=O)(=O)N=C1CCCCCN12 | x | x | x | -10 | 1.5 | -14 | 0.0 | i | 0.71 | -7.1
c1coc(CNc2ncnc3sc4c(c23)CCCCC4)c1 | x | x | x | 17 | 7.2 | 3 | 0.4 | x | 0.67 | x
Cc1ccc(CCNc2ccccc2)c[n+]1[O-] | x | x | x | 12 | 2.4 | 2 | -0.4 | x | 0.65 | x
CCc1nc(NCCCCCO)c2nnn(Cc3ccccc3F)c2n1 | x | x | x | 2 | 5.7 | -7 | 0.8 | x | 0.72 | x
CC1(C)CC(=O)C2=C(C1)OC(N)=C([N+](=O)[O-])C2c1cccs1 (centres undefined) | x | x | x | -6 | 1.7 | -2 | 0.4 | x | 0.72 | x
Cc1nc2cc(O)ccc2n1C | x | x | x | -4 | 1.8 | -3 | 0.3 | x | 0.67 | x
COc1ccc(-c2c3c(=O)n(C)c(=O)n(C)c3cn2N2CCOCC2)cc1 | x | x | x | 4 | -5.5 | -1 | u | x | 0.69 | x
CN(C(=O)CSc1nnc(-c2ccc(C(C)(C)C)cc2)n1C)C1CCS(=O)(=O)C1 (centres undefined) | 4 | 5 | -2.8 | x | -0.9 | 3 | -0.1 | i | 0.69 | -0.1
O=S(=O)(Nc1cc(S(=O)(=O)N2CCOCC2)ccc1NCC1CCCO1)c1ccccc1F (centres undefined) | 8 | 7 | 1.8 | x | 2.6 | 0 | -0.4 | i | 0.68 | 0.3
COCc1cc(=O)n2[nH]cc(-c3ccsc3)c2n1 | x | x | x | -18 | -87 | 2 | 0.7 | i | 0.67 | -2.4
Cc1ccc(NC(=O)CSc2ccccc2)cc1S(=O)(=O)N1CCCCC1 | -2 | -29 | -3.4 | x | 1.0 | -8 | 0.1 | i | 0.71 | 0.7
CCOc1cc(N2CCOCC2)c(OCC)cc1NC(=O)[C@H](C)N1C(=O)C2CC=CCC2C1=O (some centres undefined) | -1 | 0 | -0.8 | 9 | 1.5 | 0 | 0.1 | i | 0.66 | -5.8
CCOC(=O)c1cnc2c(Cl)cccc2c1NCCN1CCOCC1 | 8 | 5 | -3.6 | -5 | -16 | 1 | -0.8 | i | 0.69 | 1.4
COc1ccc(C2N(c3cc(Cl)ccc3OC)C(=O)C3CCCN32)cc1 (centres undefined) | 3 | 1 | -0.9 | 2 | 4.2 | -3 | -0.4 | i | 0.74 | 0.2
Nc1ccc(CCc2ccccn2)cc1 | 12 | 13 | 2.6 | x | 1.5 | x | x | i | 0.67 | 1.7
NC(=S)n1[nH]c(-c2ccc([N+](=O)[O-])cc2)c(N=Nc2ccccc2[N+](=O)[O-])c1=O | 22 | 14 | 2.6 | x | 10 | x | x | i | 0.72 | 2.1

A different layout for part of the listing above.
Order of results – Ecoli rRNA inh | Ecoli rRNA inh OD600 | Ecoli rRNA inh RFP | T cruzi inh | UCH37 DUB inh | Beta apoptosis | Bfl-1 A1 inh | FGF22 binding | Ecoli growth | AF4-AF9 inh
COCc1cc(=O)n2[nH]cc(-c3ccsc3)c2n1
 : x | x | x | -18 | -87 | 2 | 0.7 | i | 0.67 | -2.4
Cc1ccc(NC(=O)CSc2ccccc2)cc1S(=O)(=O)N1CCCCC1
 : -2 | -29 | -3.4 | x | 1.0 | -8 | 0.1 | i | 0.71 | 0.7
CCOc1cc(N2CCOCC2)c(OCC)cc1NC(=O)[C@H](C)N1C(=O)C2CC=CCC2C1=O (some centres undefined)
 : -1 | 0 | -0.8 | 9 | 1.5 | 0 | 0.1 | i | 0.66 | -5.8
CCOC(=O)c1cnc2c(Cl)cccc2c1NCCN1CCOCC1
 : 8 | 5 | -3.6 | -5 | -16 | 1 | -0.8 | i | 0.69 | 1.4
COc1ccc(C2N(c3cc(Cl)ccc3OC)C(=O)C3CCCN32)cc1 (centres undefined)
 : 3 | 1 | -0.9 | 2 | 4.2 | -3 | -0.4 | i | 0.74 | 0.2

(next part)
SMILES | Ecoli rRNA inh | Ecoli rRNA inh OD600 | Ecoli rRNA inh RFP | T cruzi inh | UCH37 DUB inh | Beta apoptosis | Bfl-1 A1 inh | FGF22 binding | Ecoli growth | AF4-AF9 inh
O=C1C2C(c3ccccc3)CC=CC2[C@H](c2ccoc2)N1Cc1ccccc1 (some centres undefined) | -29 | -46 | -17 | 14 | 0.5 | -5 | -0.4 | i | x | 6.6
COc1ccc(-c2n[nH]c(=S)n2-c2ccc(C)cc2C)cc1 | -26 | -25 | 3.6 | -4 | -1.4 | x | -0.6 | i | 0.67 | -3.6
O=C(NNC(=O)c1ccccc1Br)c1cccc(Cl)c1 | x | x | x | -8 | 0.4 | -1 | -0.5 | x | 0.69 | x
CCOC(=O)c1cccc(S(=O)(=O)N(CCO)Cc2cc3cc(OC)c(OC)cc3[nH]c2=O)c1 | x | x | x | -19 | 1.6 | x | -0.3 | x | 0.7 | x
CCc1ccc2oc(-c3cccc(N)c3)nc2c1 | x | x | x | 8 | -138 | -1 | -13 | x | 0.7 | x
CCOC(=O)c1c(C)[nH]c(C(=O)N(C)CC(=O)Nc2ccc(OC)cc2)c1C | x | x | x | x | 0.5 | 3 | 0.6 | i | 0.65 | 0.7
O=C(O)CNC(=O)c1ccc(NC(=O)/C(=C/c2ccccc2)NC(=O)c2ccccc2)cc1 | 4 | 10 | 0.4 | -15 | 6.3 | -5 | 0.7 | i | 0.62 | -1.4
COC(=O)[C@]1(C)N[C@H](CN(C)C(=O)C2CCCCC2)[C@@H]2C(=O)N(C)C(=O)[C@@H]21 | 14 | 10 | 0.5 | x | 1.1 | x | x | i | 0.65 | -0.4
CCN1C(=O)[C@H]2[C@H]3CN=C(SCc4ccc(C)cc4)N3[C@@](Cc3ccccc3)(C(=O)OC)[C@H]2C1=O | -30 | -40 | -6.3 | x | 0.8 | x | x | i | 0.7 | 3.4
Cc1ccc(-c2nnc(NC(=O)c3c(F)cccc3Cl)s2)cc1 | 2 | 11 | 4.9 | 5 | -4.2 | 0 | -0.2 | i | 0.82 | 0.9
CC(C)C[C@H](NC(=O)[C@@H](O)[C@H](N)Cc1ccccc1)C(=O)O | 2 | 2 | -0.8 | -21 | 1.6 | -3 | 0.1 | i | x | 0.9
O=C(NCC1CCC(C(=O)O)CC1)c1cccnc1 (centres undefined) | x | x | x | 4 | 0.8 | -2 | -0.5 | x | 0.64 | x
COc1ccc(C2=C(C)C(N3CCN(C(=O)c4ccco4)CC3)=NS2(=O)=O)cc1 | 4 | 8 | 2.9 | 1 | 3.2 | 0 | 0.8 | i | 0.71 | 2.4
O=C1NCCCCC1NC1CC(=O)N(c2ccccc2)C1=O (centres undefined) | x | x | x | x | -0.7 | -8 | 0.7 | x | 0.68 | x
CC1=NN(c2ccccc2)C(=O)/C1=C/C=C/c1ccccc1 | x | x | x | 1 | 3.2 | x | 0.9 | x | 0.71 | x
O=C(Nc1ccc(N2CCN(Cc3ccccc3)CC2)cc1)c1cccnc1 | x | x | x | 3 | -1.4 | 70 | 0.2 | x | 0.74 | x
CN(C(=O)c1ccc(NC(=O)Cc2ccc(NC(=O)C3CCCN(C(=O)C4CCCC4)C3)cc2)cc1)C1CC1 (centres undefined) | -1 | 0 | 1.6 | x | 2.3 | -1 | -0.1 | i | 0.69 | -7.3
CN=C1CC(C)(C)CC(=O)/C1=C(/O)CCC(=O)NC | x | x | x | -10 | 2.0 | -4 | 0.1 | x | 0.7 | x
CCN1C(=O)C2C(C1=O)N1C(c3ccccc3)C3C(=O)N(CC)C(=O)C3N1C2c1ccccc1 (centres undefined) | x | x | x | -6 | -0.5 | -3 | 0.4 | x | 0.65 | x
O=C(Cn1nnc(-c2ccc(CN3CCOCC3)cc2)n1)N(c1ccccc1)c1ccccc1 | -12 | -6 | -5.7 | -5 | 0.6 | -1 | 0.4 | i | 0.71 | 4.0
COc1ccc([N+](=O)[O-])cc1NC(=O)Cc1noc2ccccc12 | 5 | 4 | -0.2 | 1 | 3.0 | -2 | 0.2 | i | 0.7 | -2.1
CCOc1ccccc1C1C(C(N)=O)=C(C)Nc2nc(-c3ccccc3Cl)nn21 (centres undefined) | x | x | x | 19 | -3.0 | x | 0.7 | x | 0.68 | x
COc1ccc(C(=O)Nc2ccc(-c3ccc(NC(=O)c4ccc(OC)cc4)c(OC)c3)cc2OC)cc1 | x | x | x | -51 | -223 | 9 | 0.3 | x | 0.73 | x
Cc1ccnc(NC(=O)Nc2ccc(F)cc2)c1 | x | x | x | 1 | 0.3 | 3 | -3.7 | x | 0.67 | x
CCOc1ccc(-c2noc(CCC(=O)NCCc3ccccc3)n2)cc1OC | 2 | 4 | -1.3 | -3 | 4.9 | 0 | -1.4 | i | 0.66 | 1.6
COc1ccc2nc(NC(=O)CCN3C(=S)NC(C)(C)CC3C)sc2c1 (centres undefined) | x | x | x | 1 | 2.2 | 2 | -0.6 | x | 0.73 | x
CSc1ccc(CN2CCN(CCC(C)C)C(CCO)C2)cc1 (centres undefined) | -3 | 0 | -1.5 | 16 | 2.6 | -3 | 0.4 | i | 0.65 | 0.1
Cc1cc(C)c(CN2CCC(n3nccc3NC(=O)C3CCOC3)CC2)cc1C (centres undefined) | 5 | 5 | -0.6 | 12 | 1.9 | 0 | -5.6 | i | 0.73 | 0.2
CCn1c2ccccc2c2cc(NC(=O)c3cccc([N+](=O)[O-])c3)ccc21 | -13 | 14 | 3.9 | 50 | -0.2 | 15 | -0.2 | i | 0.69 | -9.1
